# From PubChem BioAssay
# Cruzain inh Det: cruzain (T. cruzi) inhibition with detergent; P25779; purified cruzain, Z-FR-AMC fluorescence, 0.01% Triton; Potency, µM, for the others: max response, negative = inhibition, usual class: inhibitors; 200,000 tested, 0.43% active;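 note: plate controls were neutral wells for no effect and buffer without enzyme for full effect; nearly all actives have a fitted effect of over 40% in size; top concentration of the series not given in the record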
# Target sequence (P25779 123-467 limits assumed): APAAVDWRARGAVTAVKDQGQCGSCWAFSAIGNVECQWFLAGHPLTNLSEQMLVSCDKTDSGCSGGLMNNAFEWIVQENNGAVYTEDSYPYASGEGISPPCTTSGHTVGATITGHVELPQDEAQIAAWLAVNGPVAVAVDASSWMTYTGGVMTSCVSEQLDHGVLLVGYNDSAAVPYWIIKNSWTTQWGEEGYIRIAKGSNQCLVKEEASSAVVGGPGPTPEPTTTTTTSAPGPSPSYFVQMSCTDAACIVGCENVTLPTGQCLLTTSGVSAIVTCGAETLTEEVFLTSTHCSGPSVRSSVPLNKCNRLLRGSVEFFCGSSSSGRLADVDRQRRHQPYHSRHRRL
#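 Steps: dispense cruzain (1.5 nM final) in acetate buffer pH 5.5 with DTT and 0.01% Triton X-100; pin-transfer compounds; incubate 15 min RT; add Z-FR-AMC (2 uM final); read fluorescence every 30 s, using the 60 s intensity change.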
# NS1 function inh: inhibitors of influenza NS1 protein function; S. cerevisiae slowed by influenza A NS1, growth recovery by OD600; Potency, µM (doses to about 46.1 µM), inactives show at the highest dose activity, positive = more growth; 270,000 tested, 0.4% active; active means well fitted rising curve with a large enough effect; inconclusive means small, poorly fitted or top-dose-only effect; inactive means no such curve, though single readings can be large or run the other way; note: nearly all actives have a fitted effect of over 50% in size
#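 OD600 was taken as the measure of yeast growth restored by compound in an NS1-expressing S. cerevisiae strain. Cells had been washed out of glucose medium and diluted 1:100 into galactose -URA medium, pH 6.0.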
# RE007 growth inh: less growth of the S. pombe RE007 Vpr strain | AID 651644 | Potency, µM (top dose mostly 92.2 µM), without a hit: top-dose activity change, negative = less growth | 360,000 tested, 0.21% active | S. pombe RE007 Vpr strain, BacTiter-Glo ATP luminescence, 24 h; control for the full effect not named in the record; active = well fitted falling curve with a large enough effect; inconclusive = small, poorly fitted or top-dose-only effect; inactive = no such curve, though single readings can be large or run the other way;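 note: % is set by controls: 0 for no effect and ±100 for the full control effect; nearly all actives have a fitted effect of over 50% in size; the assay follows cell death caused by Vpr and the record does not say whether a fall means rescue or toxicity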
#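 Fission yeast RE007 carrying one integrated HIV-1 vpr copy, seeded at OD 0.01 in PMG+AL medium with 23 nL pinned compound. Grown 24 h at 30 degrees; viability read by BacTiter-Glo luminescence after 5 min.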
# StopGo reporter: FMDV 2A StopGo reporter, luciferase signal; 410,000 tested, 1.2% active; AID 1159524; human cells with a luciferase reporter of 2A StopGo recoding; control for the full effect not named in the record; Potency, µM (series often up to 57.9 µM), inactives show at the highest dose signal change, negative = less light; active = well fitted falling curve with a large enough effect; inconclusive = small, poorly fitted or top-dose-only effect; inactive = no such curve, though single readings can be large or run the other way; tested in HEK293T cells; note: % is set by controls: 0 for no effect and ±100 for the full control effect; nearly all actives have a fitted effect of over 45% in size; luciferase light after 4 h
# LASV entry inh: Lassa virus entry inhibition | Lassa virus pseudotype entry inhibition, cell reporter; control for the full effect not named in the record | 300,000 tested, 1.2% active | Potency, µM (titrated, usually from 37.9 µM), inactives show at the highest dose activity change, negative = inhibition, usual class: inhibitors | AID 540256; active means well fitted inhibition curve with a large enough effect; inconclusive means small, poorly fitted or top-dose-only effect, or effect the other way; inactive means flat fitted curve, though single readings scatter; tested in HEK293 cells; note: % is set by controls: 0 for no effect and ±100 for the full control effect; nearly all actives have a fitted effect of over 50% in size; luciferase read-out
# SARS PLpro yeast: blocks SARS-CoV papain-like protease in a yeast assay; AID 485353; S. cerevisiae expressing SARS-CoV PLpro, growth rescue; control for the full effect not named in the record; 330,000 tested, 0.19% active; Potency, µM (top dose mostly 32.9 µM), for the others: at the highest dose activity, positive = growth rescue; active means well fitted rising curve with a large enough effect; inconclusive means small, poorly fitted or top-dose-only effect; inactive means no such curve, though single readings can be large or run the other way; note: 0% is about no effect; nearly all actives have a fitted effect of over 55% in size; growth read by luminescence after 48 h
# Cruzain inh noDet: cruzain (T. cruzi) inhibition without detergent; P25779; purified cruzain, Z-FR-AMC fluorescence, no detergent; Potency, µM, inactives show max response, negative = inhibition, hits mostly inhibitors; 200,000 tested, 2.3% active;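 note: plate controls were enzyme without inhibitor for no effect and buffer without enzyme for full effect; nearly all actives have a fitted effect of over 40% in size; top concentration of the series not given in the record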
#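 Purified cruzain at 1.5 nM, pre-incubated 15 min with compound at room temperature in 100 mM sodium acetate pH 5.5, 5 mM DTT, 0.00005% Triton X-100. Reaction started with 2 uM Z-FR-AMC; AMC fluorescence increase over 60 s gives rate.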
# MARV entry inh: inhibitors of Marburg virus binding or cell entry. Marburg virus pseudotyped entry inhibition, cell reporter; control for the full effect not named in the record; about a third of the inactives were read at about 46 µM. Potency, µM (titrated, usually from 37.8 µM), for the others: top-dose activity change, negative = inhibition, hits mostly inhibitors. 300,000 tested, 1.8% active. AID 540276; active = well fitted inhibition curve with a large enough effect; inconclusive = small, poorly fitted or top-dose-only effect, or effect the other way; inactive = flat fitted curve, though single readings scatter; tested in HEK293 cells; about a fifth of its hits are not listed in these tables; note: % is set by controls: 0 for no effect and ±100 for the full control effect; luciferase read-out
# * = called active by the depositor; ? = inconclusive; / = no result given; & = joins results of further samples; [ ] = dose if it differs, or a comment. Unless noted, calls come from the whole dose curve; as a rule, active = well fitted curve in the direction sought with a large enough effect; inconclusive = small, poorly fitted or top-dose-only effect, or another doubt; inactive = no such curve, though single readings can be large; an effect the other way counts as inactive or inconclusive. Potency is the fitted concentration of half-maximal effect.
SMILES,Cruzain inh Det,NS1 function inh,RE007 growth inh,StopGo reporter,LASV entry inh,SARS PLpro yeast,Cruzain inh noDet,MARV entry inh
Cc1cccc(Nc2nc(N)c([N+](=O)[O-])c(N3CCCC(C)C3)n2)c1 (stereo not drawn),-9.5%,-15%,-28%,22µM*,?,-85%,7%,?
CCOC(=O)c1ccc(NS(=O)(=O)c2cn(C)c(C)n2)cc1,-0.2%,/,/,-8%,-15%[46.1 µM],/,12%,/
COc1cc(NC(=O)c2ncn(-c3ccccc3)n2)cc(OC)c1,-3.2%,/,/,17%,10%[46.1 µM],/,1%,?
Cc1nc(Nc2ccc(S(=O)(=O)N3CCCC3)cc2)c2nnn(Cc3ccccc3)c2n1,-8.8%,20%,-6%,?,-7%,-3%,-4%,?
Cc1cc(NC(=O)c2cccc(COc3ccc(Br)cc3)c2)no1,-5.4%,1%,-10%,-25%,13µM*,9%,-8%,7.3µM*
Cc1ccccc1C1C=C(c2ccc(Cl)cc2)Nc2nnnn21 (stereo not drawn),-0.7%,/,/,-23%,-1%[46.1 µM],/,-3%,/
Cc1ccc(S(=O)(=O)N=S(CCO)CCO)cc1,-1.9%,-3%,7%,-3%,-2%,1%,5%,7%
CCCCN(C(=O)Nc1ccc(OCC)cc1)C1CCN(C(C)=O)CC1,3.8%&5.1%,16%,-2%,14%&-7%,-24%[46.1 µM],2%,0%&-15%,3%&3%
COc1ccc(NC(=O)COc2ccccc2Cc2ccccc2)cc1S(N)(=O)=O,/,3%,-5%,?,?,3%,/,?
O=C(c1cccnc1)C1CCCN(Cc2nc(Cc3ccccc3)no2)C1 (stereo not drawn),/,0%,25%,-7%,-14%,-2%,/,?
CCN1CCN(CC(O)COCCOc2ccc(Br)cc2)CC1 (stereo not drawn),0.9%,8%,0%,-5%,6%,17%,-5%,7%
N#CCCn1cc(/C=N/O)c(-c2ccccc2)n1,3.4%,-2%,-1%,8%,8%,27%,-8%,1%
Cc1ccc(S(=O)(=O)/C(C#N)=C/c2c(N3CC(C)OC(C)C3)nc3ccccn3c2=O)cc1 (stereo not drawn),-6.0%,?,15%,-3%,-23%,2%,?,-14%
COc1ccc2oc3ccccc3c(=O)c2c1,/,-2%,-16%,63%[activator],/,1%,/,/
O=S(=O)(Nc1ncccn1)c1ccc(NC(=S)NCc2cccnc2)cc1,/,7%,20%,-17%,1%,-1%,/,11%[46.1 µM]
O=C(CN(c1ccccc1)S(=O)(=O)c1ccccc1)Nc1ccc(F)cc1,/,-1%,0%,-3%,/,1%,/,/
CCOC(=O)N1CCN(S(=O)(=O)N2CCCC(C(=O)NCc3cccc(OC)c3)C2)CC1 (stereo not drawn),-0.3%,-1%,-14%,-7%&-15%,-18%&5%[46.1 µM],2%,-2%,-10%&-10%[46.1 µM]
CC(C)CC(Nc1ncnc2scc(-c3ccccc3)c12)C(=O)O (stereo not drawn),/,26%,-4%,-2%,/,4%,/,/
Cc1ccc(-c2nnn(CC(=O)N(c3cnc4ccccc4c3)C(C(=O)NC3CCCC3)c3ccncc3)n2)o1 (stereo not drawn),/,/,3%,-7%,?,3%,/,?
COc1cccc(CNC(=O)CCCn2ncn3c(cc4occc43)c2=O)c1OC,-1.5%,/,/,12%,11%[46.1 µM],/,-14%,22%[46.1 µM]

# Compound profiles (already shown). Order of screens: Cruzain inh Det, NS1 function inh, RE007 growth inh, StopGo reporter, LASV entry inh, SARS PLpro yeast, Cruzain inh noDet, MARV entry inh
# `O=S(=O)(Nc1ncccn1)c1ccc(NC(=S)NCc2cccnc2)cc1` in the list: /, 7%, 20%, -17%, 1%, -1%, /, 11%[46.1 µM]
# `COc1cccc(CNC(=O)CCCn2ncn3c(cc4occc43)c2=O)c1OC` in the list: -1.5%, /, /, 12%, 11%[46.1 µM], /, -14%, 22%[46.1 µM]

# Following part
SMILES,Cruzain inh Det,NS1 function inh,RE007 growth inh,StopGo reporter,LASV entry inh,SARS PLpro yeast,Cruzain inh noDet,MARV entry inh
CCC(=O)OCC(=O)Nc1cc(C)c(C)cc1[N+](=O)[O-],-4.7%,-1%,0%,-12%,2%,13%,-8%,13%
CCC(=O)N1CCCc2cc(S(=O)(=O)N3CCC(C(=O)Nc4ccc(F)c(F)c4)CC3)ccc21,-3.3%,/,/,?,5%[46.1 µM],/,-7%,/
C=CCn1c(SCc2ccccc2C#N)nnc1-c1ccccc1O,-0.9%,-36%,39%,16%,0%,3%,-4%,-20%
C=Cc1ccc(Cn2c(C(=O)O)c(CNC3CCCCC3)c3ccc(OC)cc32)cc1,-7.0%,/,/,7%,-3%[46.1 µM],/,11%,/
CCCc1nc2ccccc2c(=O)n1-c1ccc(O)cc1,/,-4%,-12%,-10%,-13%[46.1 µM],0%,/,-22%[46.1 µM]
Cc1cccc(-c2noc(CCCC(=O)NCc3ccco3)n2)c1,-3.0%,/,/,-15%,11%[46.1 µM],/,2%,-15%[46.1 µM]
O=C(CSc1nc2ccccc2n1CC(=O)N1CCCC1)Nc1nccs1,-2.0%,-6%,3%,3%,3%,1%,-9%,3%
COc1ccc(S(=O)(=O)NCCC(=O)NCc2cccs2)cc1,4.1%,-2%,-5%,1%,18%,?,11%,12%
O=C(NCc1ccccc1OC(F)(F)F)C1CCC(=O)N(Cc2ccccn2)C1 (stereo not drawn),/,8%,0%,3%,/,-1%,/,/
COc1ccccc1-c1c(C(F)(F)F)oc2cc(OC(=O)c3cccc([N+](=O)[O-])c3C)ccc2c1=O,-0.2%,-67%,4%,-12%,-1%,-15%,-18%,-26%
Cc1c(NC(=O)c2cc3ccccc3oc2=O)c(=O)n(-c2ccccc2)n1C,-3.1%,1%,-2%,/,23%,-5%,-8%,25%
COc1ccc2c(c1OC)C(C1c3c(cc4c(c3OC)OCO4)CCN1C)OC2=O (stereo not drawn),0.0%,6%,2%,22%,-24%,-1%,-5%,?
O=C1CC(C(=O)Nc2ccc(C(=O)O)cc2)C(c2ccccc2)O1 (stereo not drawn),2.1%,6%,14%,-11%,2%,-1%,3%,7%
Cn1ccnc1SCc1ccc([N+](=O)[O-])cc1,-2.8%,-3%,-6%,4%,1%,5%,0%,10%
COc1ccc(N2CCN(C(=O)C3CCN(S(=O)(=O)c4cn(C)cn4)CC3)CC2)cc1,-1.4%,/,/,-10%,-9%[46.1 µM],/,-3%,/
O=C(CN1C(=O)C2C3CCC(C3)C2C1=O)OCC(=O)c1cccc([N+](=O)[O-])c1 (stereo not drawn),0.0%,-5%,-5%,4%,-4%,6%,-11%,4%
O=C(Cn1nc(C(F)(F)F)c2c1CCC2)Nc1ccc(Cl)cc1,-9.6%,/,/,-27%,17%[46.1 µM],/,6%,-29%[46.1 µM]
CCOC(=O)C1CCN(C(=O)c2cnn3c(C)cc(C)nc23)CC1,2.8%,3%,3%,16%,3%,-2%,-1%,12%
CCNc1nc2nonc2nc1NCC,-2.1%,-12%,-1%,?,7%,3%,-11%,0%
C=CCNCCCCOc1ccc(OCc2ccccc2)cc1,/,0%,-6%,29%,/,-1%,/,/
CCOC(=O)N1CCC(c2cc(=O)n3[nH]ccc3n2)CC1,0.6%,4%,-1%,0%,/,-8%,-12%,/
O=C(NCCCC(=O)N1CCOCC1)c1cccnc1,2.6%,4%,-24%,-9%,0%,-7%,1%,7%[46.1 µM]
COc1ccc(N2CCN(c3nc(NCCc4ccc(OC)c(OC)c4)nc(OC)n3)CC2)cc1,-0.3%,-37%,-5%,25µM*,?,/,?,?
O=C(Nc1ccccc1)C(Cc1cccs1)c1nn[nH]n1 (stereo not drawn),-6.7%,7%,2%,-19%,-2%,13%,-6%,-8%
CC(C)CCN1CCC(n2nccc2NC(=O)C2CCOC2)CC1 (stereo not drawn),/,4%,15%,0%,3%[46.1 µM],-2%,/,21%[46.1 µM]
COc1ccc(C(NC(=O)c2ccc(-c3ccccc3)cc2)c2ccccc2)cc1 (stereo not drawn),4.7%,15%,4%,2%,?,2%,7.9µM*,-16%
CCOc1ccc(NC(=O)c2cc(Cl)nc3ccccc23)cc1,/,-2%,8%,-6%,?,-1%,/,?
CCOc1ccccc1NC(=O)N1CCCc2ccccc21,/,-10%,-7%,-19%,1%[46.1 µM],4%,/,14%[46.1 µM]
O=C(OCC(=O)N1CCCc2ccccc21)c1cnc(Cl)c(Cl)c1,-6.4%,-9%,-1%,-6%,/,-8%,9%,-7%
CCCc1ccc(OCc2ccc(C(=O)N3CCCC3)o2)cc1,/,-63%,-3%,8%,4%,-12%,/,?
CN(C)c1ccc(/C=N/NC(=O)c2cccc(N3CCCC3=O)c2)cc1,/,1%,-1%,12%,-12%,1%,/,13%[46.1 µM]
O=C(c1ccco1)N1CCN(C(=S)Nc2ccc(F)cc2)CC1,/,3%,-1%,-1%,/,5%,/,/
CCCCn1c(CCc2ccccc2)nc2cc3[nH]c(=O)c(C(C)C)nc3cc21,/,?,7%,-30%,/,-1%,/,/
Cc1c(Cl)cccc1NS(=O)(=O)c1ccc2c(c1)C1C=CCC1C(c1ccc(C(=O)O)cc1)N2 (stereo not drawn),/,13%,-13%,-5%,?,2%,/,?
COc1ccc(NC(=O)CSc2nc3ccccc3nc2N2CCCC2)c(OC)c1,/,8%,3%,-18%,/,-5%,/,/
OC(CN1CCN(Cc2ccccc2)CC1)Cn1c2ccccc2c2ccccc21 (stereo not drawn),-0.8%,-10%,-2%,-19%,-25%,-13%,-4%,?
CCC(CC)C(=O)NCc1ccccc1Cl,4.4%,5%,6%,10%,3%,9%,1%,-23%[46.1 µM]
COc1ccc(-n2nc(C(=O)NCC(=O)Nc3ccccn3)c3ccccc3c2=O)cc1,3.9%,6%,-2%,-1%,-6%,3%,-6%,?
CCCCCn1c(S(=O)(=O)O)nc2ccccc21,1.9%,-2%,2%,-5%,11%,0%,-11%,-1%
CNC(=O)CCCN1C(=O)c2cccnc2Sc2ccccc21,-1.9%,/,/,-17%,-5%[46.1 µM],/,-1%,/
Cc1cc(C)nc(SCC(=O)N(C)CC(=O)Nc2c(Cl)cccc2Cl)n1,/,/,-12%,-1%,-15%,-1%,/,4%[46.1 µM]
Cc1ccc(C)c(NC(=O)C(C)CC2COCCO2)c1 (stereo not drawn),2.1%,5%,18%,-5%,27%,2%,7%,4%
